# AF4-AF9 inh – inhibitors of AF4 peptide binding to AF9, primary screen, biochemical, AlphaScreen, biotin-AF4 peptide, FLAG-AF9, single point | Protein AF-9 (Homo sapiens), P42568 | inhibition, % at 10 µM | 350,000 tested, 0.47% active | AID 651704, 2012;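 active = every replicate reaching a set inhibition limit, whatever the replicate mean, cut at about 25% in these data; inconclusive = mean inhibition reaches that limit but some replicates miss it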;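 also: 0% = plate neutral control median and 100% = total signal loss; the record names both 10 and 1 µM as test concentration; the first replicate is given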
# rRNA inh HTS – reduced GFP signal of wild-type E. coli, primary screen, bacterial rRNA inhibitor project, GFP/RFP fluorescence, OD600, single point. E. coli WT GFP vs humanized-ribosome RFP mutants, 24 h; stronger effect = lower value; DMSO median 0, no signal -100. GFP signal change (wild-type ribosome), % (no concentration beside the values). 350,000 tested, 1.6% active. AID 720706, 2013;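 active = significant combined selectivity score with lowered wild-type GFP, culture density cut under 30%, mutant RFP and density less affected; inactive = any of these conditions unmet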; also: one replicate is shown; some compounds called inactive have numbers as strong as hits
# ALR H2O2 inh – inhibitors of human ALR sulfhydryl oxidase, primary screen, biochemical, H2O2 detection, HRP-luminol luminescence, single point; FAD-linked sulfhydryl oxidase ALR (Homo sapiens), P55789; purified ALR, DTT oxidation; inhibition, % (concentration not given with the values); 290,000 tested, 3.8% active; AID 485317, 2010;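 active = mean and each replicate at 75% or more; inconclusive = only one of the two met; inactive = neither met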;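 also: stock transfer was 7.5 nL into about 7.5 µL; 0% = neutral wells and 100% = wells with inactivated enzyme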
# Target sequence (P55789 whole entry, looked up): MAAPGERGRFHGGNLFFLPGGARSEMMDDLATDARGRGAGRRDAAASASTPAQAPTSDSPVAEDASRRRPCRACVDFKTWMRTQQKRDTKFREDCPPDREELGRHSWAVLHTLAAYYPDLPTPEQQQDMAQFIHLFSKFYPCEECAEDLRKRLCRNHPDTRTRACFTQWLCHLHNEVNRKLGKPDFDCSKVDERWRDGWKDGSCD
# HNF4A DNA FP – change in binding of human HNF4A to DNA, primary screen, biochemical, fluorescence polarization, FITC-DNA | Hepatocyte nuclear factor 4-alpha (Homo sapiens), P41235 | 1 h | activity change, % at 10 µM | 360,000 tested, 0.3% active | AID 1224865, 2016; in the data active = activity change above about 30%, passing the limit was not always enough;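 also: controls were the assay level and a saturating level of protein; the project sought stronger binding though the title names inhibitors; some compounds called inactive have numbers as strong as hits; positive values seem to mean higher polarization but the record does not say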
# Target sequence (P41235 whole entry, looked up): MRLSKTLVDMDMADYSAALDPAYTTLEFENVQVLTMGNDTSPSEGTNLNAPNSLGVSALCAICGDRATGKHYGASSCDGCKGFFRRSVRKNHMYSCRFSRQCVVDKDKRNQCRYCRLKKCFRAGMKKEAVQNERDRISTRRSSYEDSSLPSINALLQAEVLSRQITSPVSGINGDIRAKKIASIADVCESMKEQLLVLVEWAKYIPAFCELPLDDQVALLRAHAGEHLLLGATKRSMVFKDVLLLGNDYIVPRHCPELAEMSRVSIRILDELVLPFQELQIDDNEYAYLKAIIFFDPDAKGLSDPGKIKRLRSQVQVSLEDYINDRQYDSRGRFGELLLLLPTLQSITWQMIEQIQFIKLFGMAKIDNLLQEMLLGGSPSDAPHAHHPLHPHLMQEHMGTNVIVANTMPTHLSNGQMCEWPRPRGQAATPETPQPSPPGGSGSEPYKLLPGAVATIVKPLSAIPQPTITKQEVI
# E coli growth – E. coli growth inhibition, primary screen, OD600; Escherichia coli growth, 23 h; stronger effect = lower value; OD600 absorbance (test concentration not listed); 330,000 tested, 0.21% active; AID 1053175, 2014;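 active = OD600 absorbance below the run mean of sample wells minus 3.6 SD, in any replicate, cut at about 0.56 in these data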;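 also: stock transfer was 300 nL into about 60 µL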
# FGF22 binding – binders of human FGF22 protein, primary screen, FGF22 synaptogenesis inhibitor project, biophysical, thermal shift, single point | 340,000 tested, 1.5% active | recombinant FGF22 thermal shift, SYPRO orange fluorescence; percent of sucrose octasulfate shift, DMSO zero | AID 651658, 2012 | calls only at 9.99 µM;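 active = melting point raised past a set limit in the mean and every replicate; inconclusive = no clear call; three in four hits are not shown here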
# Target sequence (Q9HCT0 whole entry, looked up): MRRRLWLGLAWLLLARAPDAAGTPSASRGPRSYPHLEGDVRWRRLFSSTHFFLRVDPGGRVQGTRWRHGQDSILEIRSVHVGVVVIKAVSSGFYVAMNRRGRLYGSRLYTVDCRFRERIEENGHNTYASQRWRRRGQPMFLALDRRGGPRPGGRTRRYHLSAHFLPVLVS
# Vif A3G – inhibitors of Vif binding to APOBEC3G peptide, primary screen, biochemical, TR-FRET, GST-Vif 1-94, biotin-A3G peptide, dose response retest (AID 1117319) | inhibition, %; hits with a dose series show IC50 in µM | TR-FRET GST-Vif / biotin-A3G peptide binding; higher % means a stronger effect; test concentration not given here; strong numbers were not always called active | Virion infectivity factor (Human immunodeficiency virus type 1 group M subtype B (isolate … | 260,000 tested, 0.57% active;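 active = above the screen mean plus three standard deviations and confirmed in dose response; inconclusive = results disagree or hit not tested in dose response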;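 also: Vif residues 1-94 fused to GST binding biotinylated APOBEC3G peptide 110-148; 0% = full assay without inhibitor and 100% = GST in place of GST-Vif; retest series ran down from 100 µM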
# rRNA inh HTS OD600 – recorded beside rRNA inh HTS, whose call it bears; OD600 change, %; measured here: OD600 growth;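 optical density of the mix in the first replicate; 0 = DMSO median and -100 = no signal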
# rRNA inh HTS RFP – further read-out of rRNA inh HTS, marked with its call; RFP signal change, %; measured here: RFP humanized mutant strains;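 first replicate; 0 = DMSO median and -100 = no signal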
# * hit, by the source's call; i = inactive; ? = inconclusive; . = no result given; & = joins results of further samples. An excerpt; rates above refer to the full screens.
SMILES,AF4-AF9 inh,rRNA inh HTS,rRNA inh HTS OD600,rRNA inh HTS RFP,ALR H2O2 inh,HNF4A DNA FP,E coli growth,FGF22 binding,Vif A3G
COC(=O)CN(C#N)c1nc(NC(C)C)nc(OC)n1,.,.,.,.,-4,-2.9,0.65,.,0%
C=C(C)C(=O)Nc1nnc(-c2cccs2)s1,.,.,.,.,11,-3.0,0.69,.,0%
Cc1cccc(N/C(=N/S(=O)(=O)c2ccccc2)c2ccccc2)n1,-0.6,-1,-6,-0.1,3,-0.6,.,i,.
CCc1cccc(NC(=O)c2cccc3c2C(=O)N(C2CCCCC2)C3)c1,.,.,.,.,-3,3.0,0.72,.,.
O=C(Nc1cccc(Cl)c1)N1CCC(CO)(CCOc2ccccc2)CC1,-1.0,-21,-30,-1.1,.,-2.6,.,i,?
C/C(=N/N=C(/C)c1cccs1)c1cccs1,4.3,-5,-5,-3.0,5,-3.6,.,i,.
CS(=O)(=O)c1ccc(-c2cn3cc(C(=O)O)ccc3n2)cc1,-1.2,16,17,4.0,-13,-3.1,0.66,.,-6%
COc1ccccc1C(=O)NCC(=O)OCC(=O)Nc1cccc(S(=O)(=O)N(C)C)c1,-1.3,-51,-47,-5.9,-8,-5.9,0.68,i,-1%
CC(C)NC(=O)Nc1ccc2c(c1)C(=O)N([C@H](C)CO)C[C@H](C)[C@@H](CN(C)S(=O)(=O)c1cn(C)cn1)OCCCC[C@@H](C)O2,-1.5,9,4,-1.7,.,.,.,i,.
CC(C)N(C[C@@H]1CSCCS(=O)(=O)N1)C1CCCCC1,-1.9,20,16,2.1,.,.,.,i,.
CC(C)C1C(=O)N(Cc2cn(CC3CCCCC3)nn2)CCS(=O)(=O)N1Cc1ccc(-c2ccc(Cl)cc2)cc1 (configuration not stated),-2.1,22,18,0.6,.,3.1,.,i,.
CC(=O)c1ccc(N(C(=O)CNC(=O)c2ccco2)C(C(=O)NC2CCCC2)c2cccnc2)cc1 (configuration not stated),0.6,4,11,-0.8,0,0.8,0.68,i,.
Cc1ccccc1NC(=O)c1ccccc1NC(=O)c1cccs1,2.3,6,6,-1.8,.,-4.7,0.71,i,.
COCC(=O)Nc1ccc2c(c1)OC[C@@H](C)N(C(=O)c1ccncc1)C[C@@H](C)[C@@H](OC)CN(C)C2=O,-1.0,5,1,-1.3,.,.,.,i,.
CC(Oc1ccc2c(c1)oc(=O)c1ccccc12)C(=O)NCCCN1CCOCC1 (configuration not stated),-0.9,6,8,-0.8,-2,0.7,0.68,i,.
CCn1c(=O)cc(SCC(=O)Nc2cccc(C)n2)c2ccccc21,-2.7,14,-8,-1.8,-7,-2.4,0.69,i,-39%
CCOC(=O)C(C)Oc1c(C(=O)OC)sc2ncccc12 (configuration not stated),-13,-6,-20,-4.4,-3,3.0,0.7,i,7%
O=C(CSc1nnnn1C1CCCCC1)N1CCOCC1,-0.4,0,5,-1.2,4,-3.5,0.67,i,-2%
Cc1ccc(S(=O)(=O)N(C)C[C@@H]2Oc3ncc(C#Cc4ccc(F)cc4)cc3C(=O)N([C@H](C)CO)C[C@@H]2C)cc1,-2.8,6,12,0.7,.,.,.,i,.
Cc1onc(NC(=O)NC(=O)c2c(F)cccc2Cl)c1Br,-0.4,-14,-15,1.0,-4,0.4,0.65,i,.
c1ccc(Cn2nnc3c(N4CCCC4)ncnc32)cc1,.,.,.,.,3,-1.1,0.66,.,7%
Cc1noc(C)c1S(=O)(=O)N(C)C[C@@H]1Oc2ccc(NC(=O)CCCN(C)C)cc2CC(=O)N([C@@H](C)CO)C[C@H]1C,-4.0,-1,6,0.7,.,.,.,i,.
Cc1ccc(C)c(NS(=O)(=O)c2cc(C(=O)Nc3cccc(N(C)S(C)(=O)=O)c3)ccc2C)c1,.,.,.,.,2,-1.1,0.71,.,8%
CCCc1nc(NCCO)c(C#N)c2c1CCCC2,-4.2,.,.,.,.,6.0,0.71,i,-3%
Cn1cnnc1Sc1ccc(S(C)(=O)=O)cc1[N+](=O)[O-],-4.8,-12,-8,-3.6,-38,-4.5,0.71,i,-5%
Cc1cc(C)nc(SCC(=O)N/N=C/c2cccs2)n1,.,.,.,.,-3,-1.1,.,.,-5%
Cc1cc(-c2nnc3n2N=C(c2ccccc2)CS3)n[nH]1,-0.8,.,.,.,3,-1.4,0.64,i,?
Cc1ccc2nc(-c3ccc(NC(=O)CN4C(=O)NC(C)(c5ccc(OC(F)F)cc5)C4=O)cc3)sc2c1 (configuration not stated),1.6,12,8,2.9,3,-2.0,0.73,i,.
COC(=O)C(Cc1ccccc1)OS(N)(=O)=O (configuration not stated),-12,18,11,14,30,-4.0,0.69,i,.
COc1ccc(OC)c(C(O)c2ncc(-c3ccccc3Cl)[nH]2)c1 (configuration not stated),0.0,-1,-12,6.7,.,0.9,.,i,.
CCc1nnc(NC(=O)CSc2nnc(CNC(=O)c3ccc(OC)c(OC)c3)o2)s1,-0.4,9,7,1.2,-7,-0.6,0.69,i,3%
CCCn1nnnc1SCC(=O)N1C(C)CCCC1C (configuration not stated),-2.9,5,-4,-0.8,1,-1.6,0.7,i,.
CC(C)Oc1ccc(C(=O)/C(=C\c2cccs2)c2nc3ccccc3o2)cc1,13,21,8,0.7,-15,1.6,.,i,-9%
CC(=O)Nc1cccc(OCC(=O)NC(C)c2ccc3ccccc3c2)c1 (configuration not stated),-6.1,0,-2,1.1,-24,-4.0,0.65,i,.
COc1ccc(S(=O)(=O)Nc2ccc3c(c2)C(=O)N([C@H](C)CO)C[C@@H](C)[C@@H](CN(C)Cc2ccc(-c4ccccc4)cc2)O3)cc1,1.9,2,-5,3.2,.,.,.,i,.
Cn1ncc(Cl)c1C(=O)NCc1cc(C(C)(C)C)n[nH]1,-3.5,2,3,1.2,-1,0.4,0.71,i,-7%
C[C@H](CO)N1C[C@H](C)[C@@H](CN(C)S(=O)(=O)c2cccs2)Oc2ccc(NC(=O)C3CC3)cc2C1=O,-0.8&-6.1,4&-1,1&1,0.1&0.5,.,-2.6,0.74,i,0%
CCCN(C)C[C@H]1Oc2ncc(-c3ccccc3OC)cc2C(=O)N([C@@H](C)CO)C[C@H]1C,-0.9,6,10,1.2,.,.,.,i,.
O=C(Nc1ccn(CCCNCc2ccc3c(c2)OCO3)c(=O)n1)OCc1ccccc1,-1.2,-8,-7,-1.2,.,1.0,.,i,-4%
COc1ccc(CNC(=O)c2ccc(NS(=O)(=O)c3c(C)noc3C)cc2)cc1,.,.,.,.,0,-1.6,0.73,.,23%
C/C(CC(=O)NCc1ccco1)=N\NC(=O)Cc1ccc(-c2ccccc2)cc1,0.6,11,15,7.5,-2,0.0,.,i,.
O=C(C[C@H]1C[C@H]2c3cc(NC(=O)C4CCOCC4)ccc3O[C@H]2[C@@H](CO)O1)NCc1cccc(F)c1,-3.6,4,-1,-1.4,.,.,.,i,.
O=C(O)c1cc2n(n1)C(C(F)(F)F)CC(c1ccco1)N2 (configuration not stated),.,.,.,.,22,-2.5,0.75,.,24%
COc1ccc(C(O)(CCN2CCCCC2)C2CCCCC2)cc1 (configuration not stated),-7.0,8,-4,-0.2,-3,-5.9,0.69,i,-3%
Cc1ccc(OCC(=O)NNC(=O)C2CCN(c3ncnc4sc(C)c(C)c34)CC2)cc1,-0.7,-17,-24,-6.3,-3,1.7,0.62,i,2%
Cc1cc(N)n(-c2nc3ccccc3s2)n1,8.7,18,15,-0.7,99*,2.5,0.66,i,4%
COc1ccc(Oc2nnc(-c3ccc(C)cc3)c3ccccc23)cc1,.,.,.,.,0,-1.7,0.71,.,-4%
Cc1nn(C(C)(C)C)c(OC(=O)c2ccco2)c1Sc1ccccc1,.,.,.,.,2,1.3,0.68,.,0%
CC(C)C#Cc1ccc([C@@H]2[C@@H](CO)N3C(=O)CN(S(=O)(=O)c4ccccc4)C[C@H]23)cc1,3.0,-2,-31,1.8,.,.,.,i,.
Cc1cc(C)n(CC(O)COc2c(C)cccc2C)n1 (configuration not stated),-1.5,20,12,0.4,5,1.1,0.72,i,.
O=C(C[C@@H]1C[C@H]2c3cc(NC(=O)Nc4ccc(C(F)(F)F)cc4)ccc3O[C@H]2[C@@H](CO)O1)NCc1ccc2c(c1)OCO2,-0.1,-2,3,1.1,.,.,.,i,.
COc1cccc(NC(=O)CN(C)CC(=O)NCC(=O)Nc2ccc(F)cc2)c1,1.8,3,8,-1.8,.,1.7,0.71,i,.
CC(C)NC(=O)N(C)C[C@@H]1OCCCC[C@@H](C)Oc2ccc(NC(=O)Nc3cccc4ccccc34)cc2C(=O)N([C@@H](C)CO)C[C@@H]1C,-6.2,4,-2,1.2,.,.,.,i,.
CCN(CC)c1ccc(N2C(=NC(=O)C3CC3)SC3CS(=O)(=O)CC32)cc1 (configuration not stated),1.1,3,11,-3.5,59,0.7,0.64,i,.
C[C@@H]1CN([C@H](C)CO)C(=O)c2cc(C#CC3(O)CCCC3)cnc2O[C@@H]1CN(C)C(=O)C1CCC1,-2.0,1,-3,-3.4,.,.,.,i,.
COc1ccc(CNC(=O)C(c2ccco2)N(Cc2ccccc2)C(=O)Cc2cccs2)cc1 (configuration not stated),.,.,.,.,0,1.1,0.7,.,0%
COc1ccc(N(C)S(=O)(=O)c2cccc(C(=O)Nc3nnc(C4CC4)s3)c2)cc1,-2.3,7,-2,-0.6,-5,1.2,0.7,i,-22%
CCCCn1c(N)c(N(CC(C)C)C(=O)CN(C)S(=O)(=O)c2ccc(F)cc2)c(=O)[nH]c1=O,-7.7,6,10,-0.2,-15,-2.6,0.65,i,6%
CCN1[C@@H]2c3ccc(-c4cccc(OC)c4)c(=O)n3C[C@@H]2[C@@H](CO)[C@@H]1C(=O)N(C)C,0.1,1,4,-4.8,.,.,.,i,.
O=C(N[C@H]1C/C=C\C(c2cccc(F)c2)N(Cc2ccccc2)C(=O)C1)OCC1c2ccccc2-c2ccccc21 (some centres not stated),?,-8,1,3.6,.,1.9,0.76,i,-1%

# A stretch from further up:
SMILES,AF4-AF9 inh,rRNA inh HTS,rRNA inh HTS OD600,rRNA inh HTS RFP,ALR H2O2 inh,HNF4A DNA FP,E coli growth,FGF22 binding,Vif A3G
CCN(CC)c1ccc(N2C(=NC(=O)C3CC3)SC3CS(=O)(=O)CC32)cc1 (configuration not stated),1.1,3,11,-3.5,59,0.7,0.64,i,.
C[C@@H]1CN([C@H](C)CO)C(=O)c2cc(C#CC3(O)CCCC3)cnc2O[C@@H]1CN(C)C(=O)C1CCC1,-2.0,1,-3,-3.4,.,.,.,i,.
COc1ccc(CNC(=O)C(c2ccco2)N(Cc2ccccc2)C(=O)Cc2cccs2)cc1 (configuration not stated),.,.,.,.,0,1.1,0.7,.,0%
COc1ccc(N(C)S(=O)(=O)c2cccc(C(=O)Nc3nnc(C4CC4)s3)c2)cc1,-2.3,7,-2,-0.6,-5,1.2,0.7,i,-22%
